# Source: PubChem BioAssay
# Mtb bLac sens – beta-lactam sensitization of Mtb H37Rv; inhibition, % at 25 µM; 0.27% of 330,000 active; M. tuberculosis H37Rv growth with meropenem, percent inhibition; hits of this screen are not shown here; AID 434955;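 active = about 74% or more and at least 40 points above the plate without the antibiotic, then above 30% in a dose series; inconclusive = first-round hits that could not be retested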;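 note: growth measured after seven days incubation then overnight dye step; 0% = bacteria only wells and 100% = bacteria with antibiotic; twin plates without the antibiotic show which effects depend on it; some results filed as inactive read as strong as hits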
# Arbovirus inh – antivirals against arbovirus infection; arbovirus infection cell-based antiviral screen; inhibition, % at 10 µM; 0.37% of 200,000 active; AID 1251;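 active = inhibition from about 30%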;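 note: bluetongue infection of BSR cells; cell survival read as ATP light after 72 h; 0% = infected wells without compound and 100% = uninfected wells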
# Mtb growth – M. tuberculosis H37Rv growth inhibitors, H37Rv strain (AID 1626); M. tuberculosis H37Rv growth inhibition; higher % means a stronger effect; inhibition, % at 10 µM, or IC50 in µM where a hit was titrated; 0.95% of 220,000 active;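 active = confirmed in a dose series; inconclusive = inhibition above 80% but not taken into the dose series; inactive = below 80% or under 30% at every dose of the series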;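 note: bacteria incubated seven days before Alamar blue readout; 0% = bacteria only wells and 100% = bacteria with antibiotic wells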
# YopH PTP inh – blocks Yersinia enterocolitica YopH tyrosine phosphatase | fluorescence Ex485/Em525 | inhibition, %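 (about 10 µM by stock and volumes)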 | 0.16% of 140,000 active | AID 898;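 active = inhibition of 50% or more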;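 note: controls were vehicle for no effect and minimum signal wells for full effect; inactives centre near -20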
# RecA intein inh – blocks M. tuberculosis RecA intein splicing. P9WHJ3. cell-free RecA intein splicing, fluorescence. inhibition, %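 (about 9 µM by stock and volumes)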. 0.75% of 290,000 active. AID 2221; in the data active = inhibition above about 30%; inconclusive = no clear call, values can overlap the other calls;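 note: 0% = vehicle wells and 100% = reference inhibitor control wells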
# Target sequence (P9WHJ3 whole entry, looked up): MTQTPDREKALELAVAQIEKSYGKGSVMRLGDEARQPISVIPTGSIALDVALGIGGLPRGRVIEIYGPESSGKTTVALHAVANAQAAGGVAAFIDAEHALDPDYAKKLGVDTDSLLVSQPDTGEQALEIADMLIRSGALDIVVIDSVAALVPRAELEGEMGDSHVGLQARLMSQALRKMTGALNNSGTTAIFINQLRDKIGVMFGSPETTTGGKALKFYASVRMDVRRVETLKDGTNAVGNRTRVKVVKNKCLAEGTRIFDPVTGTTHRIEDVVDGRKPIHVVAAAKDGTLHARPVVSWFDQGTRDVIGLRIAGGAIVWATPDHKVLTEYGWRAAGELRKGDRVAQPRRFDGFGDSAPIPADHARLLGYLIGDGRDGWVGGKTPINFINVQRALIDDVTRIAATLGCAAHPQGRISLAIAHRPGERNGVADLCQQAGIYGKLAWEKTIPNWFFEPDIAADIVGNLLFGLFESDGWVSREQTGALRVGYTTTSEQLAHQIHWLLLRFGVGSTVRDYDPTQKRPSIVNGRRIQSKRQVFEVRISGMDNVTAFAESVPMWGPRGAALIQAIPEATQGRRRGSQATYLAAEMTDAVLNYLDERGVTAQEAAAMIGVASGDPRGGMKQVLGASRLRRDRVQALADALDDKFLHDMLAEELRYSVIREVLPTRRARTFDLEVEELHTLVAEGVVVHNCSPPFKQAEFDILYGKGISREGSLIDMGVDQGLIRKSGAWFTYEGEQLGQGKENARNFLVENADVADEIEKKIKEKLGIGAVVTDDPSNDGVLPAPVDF
# The depositor's hits bear a star; ? = inconclusive; nt = not tested or not shown. Only part of the results is shown; the hit share may differ from the screen's.
1. C[C@@H](NC(=O)c1nc[nH]c1C(=O)N[C@@H](CCCCNC(=O)OC(C)(C)C)C(=O)OC(C)(C)C)c1ccccc1
2. CC1CC(C)CN(CCCNC(=O)c2cc3c(s2)-c2ccccc2OC3)C1 (stereo not given)
3. CN(CP(=O)(O)CN(C)S(C)(=O)=O)S(C)(=O)=O
4. c1ccc(COc2ccc(CNCc3cccs3)cc2)cc1
5. ClCc1cc2ccccc2nc1Cl
6. COC(=O)c1nnn(-c2nonc2N)c1CSCCO
7. CCOC(=O)N1CCN(S(=O)(=O)c2ccc(C(=O)N(CCCN(C)C)c3nc4ccc(OC)cc4s3)cc2)CC1
8. CC1(OC(=O)C2CCCC2)C(=O)C=C2C=C3CCCCN3C=C2C1=O (stereo not given)
screen / no.,1,2,3,4,5,6,7,8
Mtb bLac sens,4,36,5,87,68,-5,-2,-3
Arbovirus inh,-17,nt,5,-8,-15,7,nt,nt
Mtb growth,10%,nt,-2%,2%,0%,-1%,nt,-6%
YopH PTP inh,nt,nt,-22,-32,nt,-22,nt,nt
RecA intein inh,1.5,-13,-0.9,2.5,1.7,-0.1,0.7,6.5

9. CCOC(=O)CSc1nnc(-c2ccc(S(=O)(=O)N3CCOCC3)cc2)n1-c1ccccc1
10. CN(CCO)c1cnccn1
11. CN(C)c1ccc(NC(=O)CN2C(=O)CC(c3ccccc3)=Nc3ccccc32)cc1
12. CN(C)C(=O)CSc1nnc(Cc2ccc3c(c2)OCO3)o1
13. CCN1/C(=C/C=C/c2oc3ccc4ccccc4c3[n+]2CC)Oc2ccc3ccccc3c21
14. CCOC(=O)C(C)/C(C)=N/NC(=O)CCC(=O)Nc1cc(C)ccc1C (stereo not given)
15. Cn1cnnc1SCC(=O)Nc1cc(S(=O)(=O)N2CCCCCC2)ccc1Cl
16. Cc1ccc(C2=C/C(=C/c3cccs3)C(=O)O2)cc1
screen / no.,9,10,11,12,13,14,15,16
Mtb bLac sens,9,4,-17,-5,96,-8,-3,6
Arbovirus inh,4,0,2,-3,-20,2,-9,0
Mtb growth,15%,0%,-12%,8%,70%,1%,-1%,15%
YopH PTP inh,7,nt,-48,nt,nt,nt,-8,-42
RecA intein inh,0.4,-1.8,-18,9.7,1.4,1.8,3.3,0.9

17. COc1ccccc1C(=O)Nc1ccnn1C1CCN(Cc2cnn(C)c2C)CC1
18. CCOc1ccc(C(=O)OCC(=O)NC(C)C)cc1
19. COc1ccc(NC(=O)NCCCN2CCN(c3ccccc3F)CC2)cc1
20. CC(=O)Oc1ccc(C(=O)O)cc1OC(C)=O
21. Clc1ccc(C2CC(c3ccccc3)Nc3ncnn32)cc1 (stereo not given)
22. Cc1nc(-c2ccccc2Cl)sc1C(=O)/C=C/N(C)C
23. COCCN(C(=O)COC(=O)Cc1cccc(OC)c1)c1c(N)n(Cc2ccccc2)c(=O)[nH]c1=O
24. O=[N+]([O-])c1cccc(-c2n[nH]c(=S)n2Cc2ccccc2)c1
screen / no.,17,18,19,20,21,22,23,24
Mtb bLac sens,-6,-10,-8,6,48,3,-2,4
Arbovirus inh,nt,27,nt,-3,-20,4,nt,-9
Mtb growth,nt,-9%,-11%,-9%,1%,-1%,nt,6%
YopH PTP inh,nt,nt,nt,-52,-23,nt,nt,-3
RecA intein inh,-7.2,-3.8,-1.2,-5.6,0.3,2.4,-2.3,-1.1

# Four entries from above, field by field.
(18) CCOc1ccc(C(=O)OCC(=O)NC(C)C)cc1
  Mtb bLac sens = -10	Arbovirus inh = 27	Mtb growth = -9%	YopH PTP inh = nt	RecA intein inh = -3.8
(19) COc1ccc(NC(=O)NCCCN2CCN(c3ccccc3F)CC2)cc1
  Mtb bLac sens = -8	Arbovirus inh = nt	Mtb growth = -11%	YopH PTP inh = nt	RecA intein inh = -1.2
(20) CC(=O)Oc1ccc(C(=O)O)cc1OC(C)=O
  Mtb bLac sens = 6	Arbovirus inh = -3	Mtb growth = -9%	YopH PTP inh = -52	RecA intein inh = -5.6
(21) Clc1ccc(C2CC(c3ccccc3)Nc3ncnn32)cc1 (stereo not given)
  Mtb bLac sens = 48	Arbovirus inh = -20	Mtb growth = 1%	YopH PTP inh = -23	RecA intein inh = 0.3

# Other results
25. O=C(c1ccc(F)c([N+](=O)[O-])c1)N1CC2CC(C1)c1cccc(=O)n1C2 (stereo not given)
26. CC(=O)c1ccc(N=C2NC(=O)C(CO)(CO)S2)cc1
27. COc1cc(CNCc2ccccc2)cc(Cl)c1OC
28. O=C(c1ccc(COc2ccc3c(c2)CCC3)o1)N1CCN(c2ccccc2)CC1
29. COc1ccccc1NC(=O)c1sc2nc(N3CCOCC3)c3c(c2c1N)CCCC3
30. Cc1noc(C)c1C(=O)OCC(=O)N(C)C1CCS(=O)(=O)C1 (stereo not given)
31. NCCc1c(-c2ccccc2)n(-c2ccccc2)c2ccccc12
32. CCCC(=O)OCC[N+](C)(C)C
screen / no.,25,26,27,28,29,30,31,32
Mtb bLac sens,2,3,-8,66,2,-9,nt,2
Arbovirus inh,nt,nt,0,nt,nt,3,-30,0
Mtb growth,nt,nt,5%,9%,nt,0%,28%,-6%
YopH PTP inh,nt,nt,nt,-15,nt,nt,nt,-32
RecA intein inh,1.3,-2.1,-1.2,1.2,-2.2,2.0,21,0.5

# Reformatted: six of the compounds above
nr	SMILES	Mtb bLac sens	Arbovirus inh	Mtb growth	YopH PTP inh	RecA intein inh
14	CCOC(=O)C(C)/C(C)=N/NC(=O)CCC(=O)Nc1cc(C)ccc1C (stereo not given)	-8	2	1%	nt	1.8
5	ClCc1cc2ccccc2nc1Cl	68	-15	0%	nt	1.7
8	CC1(OC(=O)C2CCCC2)C(=O)C=C2C=C3CCCCN3C=C2C1=O (stereo not given)	-3	nt	-6%	nt	6.5
12	CN(C)C(=O)CSc1nnc(Cc2ccc3c(c2)OCO3)o1	-5	-3	8%	nt	9.7
16	Cc1ccc(C2=C/C(=C/c3cccs3)C(=O)O2)cc1	6	0	15%	-42	0.9
9	CCOC(=O)CSc1nnc(-c2ccc(S(=O)(=O)N3CCOCC3)cc2)n1-c1ccccc1	9	4	15%	7	0.4

# The list continues:
33. CC(=O)NC(CC(=O)N1CCN(C(C)=O)CC1)c1ccccc1 (stereo not given)
34. CN(CC(=O)NCc1ccccn1)S(=O)(=O)c1ccc2ccccc2c1
35. CC(C)Nc1cc(C(C)(C)C)nc2c(-c3ccccc3)cnn12
36. Cc1cc2ccccc2n2c(SCC(=O)Nc3ccc(S(=O)(=O)N4CCCCC4)cc3)nnc12
37. CSc1nc2nc(-c3cccc(C(F)(F)F)c3)ccn2n1
38. c1ccc2c(c1)Cc1cc3ccccc3nc1-2
39. Cc1ccc(Cl)c(NC(=O)CCl)c1Cl
40. CCOC(=O)C1(Cc2cccc(F)c2)CCN(Cc2c(C)nn(CC)c2C)CC1
screen / no.,33,34,35,36,37,38,39,40
Mtb bLac sens,0,-5,6,-5,4,0,93,-10
Arbovirus inh,nt,16,nt,-5,1,nt,11,nt
Mtb growth,nt,3%,-2%,9%,-1%,nt,3%,-7%
YopH PTP inh,nt,nt,nt,-15,nt,nt,nt,nt
RecA intein inh,0.7,-1.3,4.9,-3.4,-1.5,2.9,5.4,2.1

41. COC(=O)Cc1ccc(OCC(=O)Nc2ccc(OC(F)(F)F)cc2)cc1
42. Brc1ccc(C2=CC(c3ccco3)n3nnnc3N2)cc1 (stereo not given)
43. CC(=O)c1cccc(NC(=O)c2ccncc2)c1
44. Cc1cc(/C=N/NC(N)=S)c(C)n1-c1ccc(Br)cc1
45. CCOC(=O)c1cc(C)[nH]c(=S)c1C#N
46. COc1cc(C(=O)Nc2ccc3c(c2)C(=O)c2ccccc2C3=O)cc(OC)c1OC
47. CC(C)CN(C(=O)COC(=O)CCC(=O)c1ccc(F)cc1)c1c(N)n(Cc2ccccc2)c(=O)[nH]c1=O
48. CCOC(=O)N1CCN(C(=O)C2CCC(=O)N(Cc3cccc(C(F)(F)F)c3)C2)CC1 (stereo not given)
screen / no.,41,42,43,44,45,46,47,48
Mtb bLac sens,30,0,-8,94,5,0,1,3
Arbovirus inh,-26,nt,-7,-2,2,-14,nt,nt
Mtb growth,52%,nt,6%,64%,3%,-5%,nt,nt
YopH PTP inh,-34,nt,-49,nt,-33,-3,nt,nt
RecA intein inh,-2.3,-0.1,-0.3,3.8,-2.3,0.3,-1.4,-1.7

49. COc1ccccc1NC(=S)N(Cc1ccccc1)Cc1cccnc1
50. Cc1onc(-c2c(Cl)cccc2Cl)c1C(=O)N1CCSCC1
51. Cc1ccc(S(=O)(=O)N2CC(=O)Nc3ccccc32)cc1
52. CC(C)CCCn1c(O)c(/C=C2/C=CC=N2)c(=O)[nH]c1=O
53. Cc1ccc(/C=C2\C(=O)NC(=O)N(Cc3ccccc3Cl)C2=O)o1
54. COc1cc(Cl)c(C)cc1NC(=O)Cc1cccs1
55. CC(=O)NN1C(=O)c2ccc(Oc3ccc4c(c3)C(=O)N(NC(C)=O)C4=O)cc2C1=O
56. CC1CN(C(=O)N[C@@H](Cc2ccccc2)C(=O)O)CC(C)O1 (stereo not given in full)
screen / no.,49,50,51,52,53,54,55,56
Mtb bLac sens,1,-8,1,100,-4,-1,-5,-12
Arbovirus inh,-4,nt,-2,-8,7,nt,0,1
Mtb growth,3%,-11%,-11%,?,-1%,nt,8%,-9%
YopH PTP inh,nt,nt,-34,-19,nt,nt,nt,5
RecA intein inh,2.1,0.6,0.7,-2.1,2.9,2.3,3.4,-1.1

57. Cc1ccc(C(=O)C[n+]2ccccc2)cc1
58. CN(C)CCOC1c2ccccc2C=Cc2ccccc21
59. COc1cc2c(cc1OC)C(c1cc(Br)ccc1O)N(C(C)=O)CC2 (stereo not given)
60. NS(=O)(=O)c1ccc(NC(=O)COC(=O)c2cn(-c3ccccc3)nc2-c2ccccc2)cc1
61. O=C(C1=NN[C@@H]2C(=O)N(c3ccccc3C(F)(F)F)C(=O)[C@H]12)C(c1ccccc1)c1ccccc1
62. CCN(c1cccc(C)c1)S(=O)(=O)c1ccc(-c2cc(C)no2)s1
63. Cc1ccc(C)c(Cn2nnc3c(=O)[nH]c(C4CCN(S(=O)(=O)c5ccc(S(=O)(=O)N(C)C)cc5)CC4)nc32)c1
64. Cc1ccc(-c2cc(C(=O)Nc3cc(C)on3)no2)cc1
screen / no.,57,58,59,60,61,62,63,64
Mtb bLac sens,3,-1,0,-7,-6,10,34,3
Arbovirus inh,nt,nt,nt,nt,2,nt,nt,0
Mtb growth,nt,nt,nt,-3%,-1%,nt,nt,6%
YopH PTP inh,nt,nt,nt,nt,-17,nt,nt,nt
RecA intein inh,-1.5,2.1,0.6,-10,-0.1,15,1.0,nt

# Reprinted at random: four compounds from above.
59. COc1cc2c(cc1OC)C(c1cc(Br)ccc1O)N(C(C)=O)CC2 (stereo not given)
57. Cc1ccc(C(=O)C[n+]2ccccc2)cc1
64. Cc1ccc(-c2cc(C(=O)Nc3cc(C)on3)no2)cc1
60. NS(=O)(=O)c1ccc(NC(=O)COC(=O)c2cn(-c3ccccc3)nc2-c2ccccc2)cc1
screen / no.,59,57,64,60
Mtb bLac sens,0,3,3,-7
Arbovirus inh,nt,nt,0,nt
Mtb growth,nt,nt,6%,-3%
YopH PTP inh,nt,nt,nt,nt
RecA intein inh,0.6,-1.5,nt,-10

# Following part
65. CCCn1nnc(NC(=S)NC(=O)/C=C/c2ccco2)n1
66. COc1ccc(/C=C/C(=O)N2CCN(c3ccccc3)CC2)cc1S(=O)(=O)N1CCOCC1
67. COCCCNC(=O)c1cn(-c2cccc(OC)c2)c(=O)c2ccccc12
68. CC(NC(=O)c1ccccc1F)c1nnc(SCC(=O)NC2CCCCC2)n1C (stereo not given)
69. O=C(CN1C(=O)COc2ccccc21)NCc1ccc(C(=O)O)cc1
70. C=CCNc1ncnc2c1cnn2-c1ccc(OC)cc1
71. COC(=O)[C@@]1(Cc2ccc(F)cc2)[C@H]2c3cc(C(=O)N(C)C)n(C[C@H](O)CO)c3C[C@H]2CN1C(=O)c1ccccc1
screen / no.,65,66,67,68,69,70,71
Mtb bLac sens,59,-2,71,6,3,6,-8
Arbovirus inh,nt,4,nt,nt,1,-3,6
Mtb growth,61%,5%,nt,nt,3%,6%,4%
YopH PTP inh,nt,nt,nt,nt,-46,-33,-26
RecA intein inh,3.9,0.4,-0.1,0.3,-1.4,0.8,nt
